Source: PubChem
NPYLR7 agonist = activates Aedes aegypti NPYLR7 receptor; 270,000 tested, 0.15% active; HEK293T NPYLR7/Galpha15, GCaMP6s calcium fluorescence; activation, % at 10 µM; AID 1259423; in the data active means activation above about 40%;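 further: 0% = vehicle and 100% = reference agonist at the receptor; some compounds past the cut are filed as inactive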
NPYLR7 agonist max-min = recorded beside NPYLR7 agonist, whose call it bears; activation, %; measured here: Max-Min RFU normalised activation; some inactives read as strong as hits;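 span of the calcium signal over five minutes; 0% = vehicle and 100% = native peptide agonist; compound fluorescence can raise it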
The depositor's hits bear a star; & = joins results of further samples. The list is partial, so the mix of outcomes need not match the whole.

Structure	NPYLR7 agonist	NPYLR7 agonist max-min
C[n+]1cccc(/C=N\Nc2nc(Cl)c(C#N)c(Cl)c2Cl)c1	-8.9	-10.8
CS(=O)(=O)N1CCN(C(=O)c2csc(-c3cc4ccccc4[nH]3)n2)CC1	0.8	0.5
Cc1c(Br)c(C(F)(F)F)nn1CC(=O)Nc1sc2c(c1C(=O)OC(C)C)CCCC2	-1.2	-5.2
CCc1nc2ccc(C(=O)Nc3cccc(OC)c3)cn2c1N(C)CCN1CCOCC1	21.0	20.1
Cc1cccc(C(=O)N2C(C(=O)NCc3ccccn3)COC23CCN(C(=O)c2ccc(F)cc2)CC3)c1 (stereo not given)	2.4	14.6
COC(=O)c1sc2nc(-c3ccccc3)cc(-c3ccc(OC)cc3)c2c1N	-4.3	-4.0
COCCN(CC(=O)N(CCc1c[nH]c2ccccc12)Cc1ccccc1OC)C(=O)c1cccc(OC)c1	8.5	6.6
CCCCN(C)C(=O)c1sc(=O)n(Cc2ccc(Cl)c(Cl)c2)c1C	11.4	5.1
O=C(CC(c1ccccc1C(F)(F)F)c1c[nH]c2ccccc12)NCCc1ccccc1 (stereo not given)	-2.6	3.8
CN(C)c1ncc(CNS(=O)(=O)c2cc(F)cc(F)c2)n1C	14.4	9.1

As entered above.
NPYLR7 agonist max-min with Cc1cccc(C(=O)N2C(C(=O)NCc3ccccn3)COC23CCN(C(=O)c2ccc(F)cc2)CC3)c1 (stereo not given) : 14.6
NPYLR7 agonist with O=C(CC(c1ccccc1C(F)(F)F)c1c[nH]c2ccccc12)NCCc1ccccc1 (stereo not given) : -2.6
NPYLR7 agonist with COC(=O)c1sc2nc(-c3ccccc3)cc(-c3ccc(OC)cc3)c2c1N : -4.3
NPYLR7 agonist max-min with CN(C)c1ncc(CNS(=O)(=O)c2cc(F)cc(F)c2)n1C : 9.1
NPYLR7 agonist with COCCN(CC(=O)N(CCc1c[nH]c2ccccc12)Cc1ccccc1OC)C(=O)c1cccc(OC)c1 : 8.5
NPYLR7 agonist with C[n+]1cccc(/C=N\Nc2nc(Cl)c(C#N)c(Cl)c2Cl)c1 : -8.9

Next entries follow:
Structure	NPYLR7 agonist	NPYLR7 agonist max-min
CC(C)CN(C/C=C/c1ccccc1)C(=O)CNC(=O)N(C)C	10.3	-0.3
CCN1CCN(c2cc(-c3ccc(F)cc3)c3c(n2)CCCCCC3)CC1	-3.2	-10.0
O=C(NCCc1ccc(Cl)cc1Cl)c1cc(-c2cccs2)nn1-c1ccc(F)cc1	-2.8	5.4
CCCc1nc(C)cc(N2CCC(Cc3ccccc3)(C(=O)O)CC2)n1	1.3	1.3
CCCC1(C2CCN(C(=O)C(=O)C(C)CC)CC2)NC(=O)N(Cc2ccco2)C1=O (stereo not given)	3.3	-0.2
O=C(NC1CCN(c2ccccc2C(=O)NCC2CCCO2)CC1)c1ccc(Cl)cc1Cl (stereo not given)	21.5	22.6
CCC(CC)C(=O)N1CCN(c2nccn2-c2ccccc2F)CC1	4.0	7.4
Cc1nn(C)cc1-c1ccnc(NCc2nc3c(s2)CCCC3)n1	13.7	12.6
Cc1ccc(-c2ccc(=O)n(CN(C)C(C3CC3)C3CC3)n2)s1	3.3	0.6
CCCCc1ccc(-c2nc(C=Nc3ccc(OC)cc3)c(O)o2)cc1	-0.1	-1.7

Additional results
Structure	NPYLR7 agonist	NPYLR7 agonist max-min
N#Cc1cc([N+](=O)[O-])ccc1Oc1ccc(Br)cc1Br	1.1	7.3
O=C(c1nnn(-c2ccccc2)c1CSc1ncccn1)N1CCN(c2ccccc2F)CC1	-1.5	-5.9
Cc1cc(C)c(NC(=O)CCCn2nc(-c3ccc(F)cc3)ccc2=O)c(C)c1	5.8	5.1
Cc1cc(CC(C)NC(=O)c2cn(-c3ccccc3)nn2)n[nH]1 (stereo not given)	-2.9	-3.5
COc1cc(NC(=O)Cc2ccc(N3CCCC3=O)cc2)cc(OC)c1	0.5	-0.8
CC(C)CCN(Cc1ccc(F)cc1F)CC(O)COCc1ccccc1 (stereo not given)	24.3	18.9
CN(C)c1ccc(C(F)(F)F)cc1NC(=O)c1ccc2c(c1)COC2	-23.4	-24.0
COCCC(NC(=O)CNC(C)=O)c1ccc(Cl)cc1 (stereo not given)	-1.1	51.8
CC1(C(=O)Nc2ccc(Cl)c(Cl)c2)CCN1C(=O)c1ccccc1 (stereo not given)	7.7	7.8
Nc1ccc(NS(=O)(=O)c2ccc(F)c(F)c2)cc1	-0.7	-1.8

The listing continues.
Structure	NPYLR7 agonist	NPYLR7 agonist max-min
CCCCN(CC(=O)N1c2ccccc2-n2cccc2C1c1cc(OC)ccc1OC)C(=O)c1cccc(Br)c1 (stereo not given)	1.7	18.9
Cc1cc(C(=O)NCc2cc(F)cc(F)c2)c(C)o1	2.9	2.3
CCCN1CCC(C)(C(=O)Nc2ccc3nc(C)oc3c2)C1 (stereo not given)	-0.4	-2.2
CCOc1ccc(CCNC(=O)Cn2ccn3nc(-c4ccc(C)cc4)cc3c2=O)cc1OCC	8.2	5.1
CCN(Cc1nc2cc(Cl)ccc2c(=O)[nH]1)C(=O)CCc1ccc(C)c(Cl)c1	4.3	-0.7
CCOc1c(Cl)cc(C=CC(=O)N2CCc3ccccc3C2)cc1OC	6.7	2.0
CCCCN(C(C)=O)c1c(CC)nc2ccc(C(=O)NCc3cccs3)cn12	12.0	7.7
Cc1cc(C)cc(-c2nc3ccccn3c2NC(=O)C2CC2)c1	-3.8	1.1
COc1cccc(C(=O)N2CCC3(CC2)OCC(C(=O)NCC2CCCO2)N3C(=O)c2ccco2)c1 (stereo not given)	0.4	10.0
CC(=O)c1cccc(OCC(=O)NS(=O)(=O)c2ccc(C)s2)c1	8.1	6.4

(list continues)
Structure	NPYLR7 agonist	NPYLR7 agonist max-min
COc1cc(CNCc2cc(C(N)=O)no2)cc(OC)c1	10.0	8.3
COc1ccc(C(=O)N2CCN(C(=O)c3cc(-c4ccccc4)n(-c4ccc(OC)c(OC)c4)c3C)CC2)cc1	-10.9	-2.1
Cc1cccnc1NCCNC1CSCCSC1	7.2	4.6
CCc1nn(C(CC)C(=O)NCCC(C)C)c(=O)c2cc3oc(C)cc3n12 (stereo not given)	3.2	2.6
C=c1ccccc1=c1[nH]/c(=C\c2ccco2)c(=O)o1	2.0	-2.3
O=C1NC(c2ccc(C(F)(F)F)cc2)C(C(=O)c2ccccc2)C(O)(C(F)(F)F)N1 (stereo not given)	-0.6	-8.8
S=c1oc(-c2cccc(Cl)c2)nn1CN1CCC(c2nnc3ccccn23)CC1	3.3	6.6
Cc1ccncc1C(=O)N(C)Cc1ccccc1OCC(C)C	3.5	3.2
CC(NC(=O)COc1ccc(F)cc1F)c1ccncc1 (stereo not given)	-1.8	-2.7
O=C(NCc1cccs1)c1cc2c(s1)CS(=O)(=O)C2	8.9	9.3

The results go on:
Structure	NPYLR7 agonist	NPYLR7 agonist max-min
CC(C)Cn1cncc1CNC(=O)c1cccc(CC2CCNCC2)c1	-4.8	-14.1
O=C(CCn1cncn1)N1CCCC(CNC(=O)C2(c3ccc(Cl)cc3)CC2)C1 (stereo not given)	7.4&-4.4	4.0&-5.5
CNC(=O)CNC(=O)CCC1(Cc2ccccc2)C(=O)N(C)c2ccccc21 (stereo not given)	-1.0	-1.4
Cc1ccc(C)c(C(=O)NC2C3CC4CC(C3)CC2C4)c1 (stereo not given)	-6.2	-9.9
Cc1ccc(NC(=O)N2CCC(C(NC(=O)c3ccc4c(c3)OCO4)C(=O)NC3CC3)CC2)cc1 (stereo not given)	10.1	7.4
CC(=O)NCc1c(-c2ccc(C)cc2)nc2n1CCS2	9.8	4.4
O=C(NCc1ccc(N2CCSCC2)cc1)c1ccon1	0.2	-2.4
COc1ccccc1CN1CCNC(=O)C1CC(=O)NCCC1=CCCCC1 (stereo not given)	14.0	5.5
Cc1ccc(C2(CN3CCN4C(=O)CN(C)C(=O)C4C3)CCNCC2)nc1 (stereo not given)	24.4	14.8
O=C(O)c1cc2c(=O)n3ccccc3nc2n1Cc1ccccc1	3.5	2.0

Next entries.
Structure	NPYLR7 agonist	NPYLR7 agonist max-min
COc1ccc(C(=O)C2CCCN(CC#Cc3ccccc3)C2)cc1OC (stereo not given)	-4.3	5.9
COc1ccc(/C=C/C(=O)N2CCC3(CC2)CC3C(=O)N2CCN(c3ccccn3)CC2)cc1OC (stereo not given)	7.9	6.0
COC(=O)c1cccc(CN2C(=O)C(C)Sc3ccc(S(C)(=O)=O)cc32)c1 (stereo not given)	4.8	2.5
COc1cc(-c2nnc(CCC(=O)O)c(=O)[nH]2)ccc1OC(C)C	19.9	8.2
CCCCCOc1ccc(C(=O)N2CCC(CNC(=O)C(F)(F)F)CC2)cc1OCCCCC	-19.9	-22.2
CN(C)CCNc1nc2ccccc2c2nnc(Cc3ccccc3)n12	6.0	6.0
COc1ccc(C=CC(=O)Oc2cccc([N+](=O)[O-])c2)cc1	1.8	2.2
C/C(CC1(O)/C(=N\O)CCc2nonc21)=N/O (stereo not given)	-9.1	-13.3
CCOC(=O)c1cnc(-c2ccccc2)nc1NCCOC	21.2	17.4
COCCNC(=O)C1CCCN(C2CCN(C(=O)c3cscn3)CC2)C1 (stereo not given)	8.4	6.1

New compounds follow:
Structure	NPYLR7 agonist	NPYLR7 agonist max-min
O=C(Nc1nc(-c2ccc(F)cc2)cs1)c1ccc(Cl)c(N2CCCC2=O)c1	2.5	4.3
CC1CN(C(=O)CNc2cc(Cl)cc(Cl)c2)CC(C)O1 (stereo not given)	3.6	2.8
O=C1OCCN1CCCN1CCSC2(CCCCC2)C1	3.2	5.5
CN(Cc1ccncn1)C(=O)c1nn(C)c(=O)c2ccccc12	6.1	1.8
CC(=O)c1ccc(N2C(=O)C3C4C=CC(C4=C(C)C)C3C2=O)cc1 (stereo not given)	0.6	-0.9
CCCC(=O)Nc1c(-c2ccc(OC)c(OC)c2)nc2ccc(C)cn12	-1.1	1.8
OCCC1CN(Cc2cnc(-c3ccc(Cl)cc3)nc2)CCN1Cc1ccsc1 (stereo not given)	10.5	0.6
CCn1cc(CNc2nc3nonc3nc2N2CCCCCC2)cn1	9.2	6.8
CS(=O)(=O)CCNC(=O)N1CC2(CCCC2)c2ccccc21	4.9&-2.6	3.4&-4.1
COc1ccc(C(=O)Cn2nc(C(C)C)c3cnn(-c4ccccc4)c3c2=O)cc1	-3.4	-4.7

New compounds follow
Structure	NPYLR7 agonist	NPYLR7 agonist max-min
O=C(CSc1nc(=O)n(CCCO)c2c1CCCC2)NCc1ccccc1	-0.2	-13.9
Cc1cc(C(=O)COC(=O)C2CCCO2)c(C)[nH]1 (stereo not given)	0.1	-3.2
Cc1cc(Oc2ncccc2C#N)ccc1NS(=O)(=O)c1cccs1	11.3	7.5
CCN(CC)S(=O)(=O)c1ccc(C(=O)Nc2c3c(nn2C(C)(C)C)CSC3)cc1	-0.9	-1.1
CC(=O)N1CCc2cc(NC(=O)COc3ccccc3)ccc21	0.8	0.2
Cc1csc2nc(CSc3nnc(-c4cccs4)n3C3CC3)cc(=O)n12	-1.5	-2.6
COCCCNC(=O)c1cc(N)ccc1N1CCN(c2ccccc2OC)CC1	2.2	-0.8
CCNC(=S)NN=C(C)c1ccc[nH]1	6.6	7.4
CCOC(=O)c1ccc(NC(=S)NNC(=O)c2cccc(OC(F)(F)C(F)F)c2)cc1	-11.9	-18.4
CCOc1cc2nccc(Cl)c2cc1OCC	0.7	-3.6

Later entries.
Structure	NPYLR7 agonist	NPYLR7 agonist max-min
OC1(Cc2cc(-c3ccccc3)no2)CCN(CCCn2cccn2)CC1	5.1	3.4
COc1ccc(C)cc1NC(=O)c1c(-c2c(Cl)cccc2Cl)noc1C	4.4	3.9
CC(C)N(CC(N)=O)C(=O)CCOc1cccc(Br)c1	0.3	-2.3
Cn1nnc2c(N3CCCCCC3)ncnc21	13.2	6.6
Cc1ccccc1CSC1=NCCN1S(C)(=O)=O	3.9	5.6
CC[C@H]1CN(c2cc(C)nc(N3CCCC3)n2)CC[C@@]1(C)O	-0.6	4.9
Cc1nn(-c2ccccc2)c(C)c1NC(=O)N1CCOCC1c1ccccc1 (stereo not given)	-0.1	6.5
Cc1nc2nc(=S)[nH]n2c(C)c1CCC(=O)O	-6.7	-17.3
O=C(Nc1n[nH]c(Cc2ccccc2)n1)N1CCc2ccccc2C1	3.0	18.7
O=C(C1CCCC1)N1CCN(c2ncnc3c2nnn3Cc2ccccc2)CC1	-7.9	-14.1

The closing 4 records of the section before open the next one.
Structure	NPYLR7 agonist	NPYLR7 agonist max-min
Cc1nn(-c2ccccc2)c(C)c1NC(=O)N1CCOCC1c1ccccc1 (stereo not given)	-0.1	6.5
Cc1nc2nc(=S)[nH]n2c(C)c1CCC(=O)O	-6.7	-17.3
O=C(Nc1n[nH]c(Cc2ccccc2)n1)N1CCc2ccccc2C1	3.0	18.7
O=C(C1CCCC1)N1CCN(c2ncnc3c2nnn3Cc2ccccc2)CC1	-7.9	-14.1
COC(CNC(=O)c1c(C)cc(C)n(C)c1=O)c1cccs1 (stereo not given)	0.1	-4.3
CC(C)CN(CC(=O)N(Cc1cccn1Cc1ccc(F)cc1)C1CCCCC1)C(=O)c1ccco1	-5.4	2.0
Cc1ccnc(Nc2ccc(NCCNC(=O)C3CCCC3)nn2)c1	12.0	1.6
CC(C)(C)c1cc2nc(C(=O)N3CCN(c4ccccc4Cl)CC3)cc(-c3cccc(F)c3)n2n1	-0.6&11.1	4.8&6.2
CN(C)c1ccc(C2=NOC(CNCc3cccc(Cl)c3)C2)cc1 (stereo not given)	-0.4	-6.5
COCCCN(CC(=O)N(CCc1c[nH]c2ccccc12)Cc1ccc(Cl)cc1)C(=O)c1ccc(F)cc1	5.8	11.0
